Screening results deposited in PubChem BioAssay by several laboratories.
PrP UTR inh: inhibition of PrP 5' UTR reporter expression. cell-based PrP 5' UTR mRNA reporter, plate reader. inhibition, % (concentration not given with the values). actives 0.35% (n = 340,000). AID 488862;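 active = every replicate at 50% or more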;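 note: 0 = median of the neutral control wells; tested in H4 reporter cells; numbers are from one replicate; inactives centre near -14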
BJeLR lethal: kills HRASV12-expressing BJeLR cells; BJeLR (HRASV12) viability, CellTiter-Glo ATP luminescence, 48 h; reference of the scale not given here; inhibition, % (no concentration beside the values); AID 1554; actives 0.17% (n = 300,000);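 active = replicate mean above 50%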;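 note: 50 nL library stock added to about 25 µL; numbers are from one replicate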
Sa ugtP lethal: compounds lethal to S. aureus RN4220 ugtP deletion mutant; OD600 growth, 16 h; some inactives read as strong as hits; growth inhibition, % (concentration not given with the values); actives 0.54% (n = 330,000);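 active = z-score under -3 and OD600 up to 0.15 on both plates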;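 note: plate controls were untreated wells for no effect and antibiotic for full effect; wells of about 80 µL received 100 nL stock; the first replicate is given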
Bead autofluor: flagged as autofluorescent in microsphere protease counterscreen; fluorescence intensity (test concentration not listed); actives 3.1% (n = 360,000); compound autofluorescence counterscreen, microsphere flow cytometry; active compounds read high;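 active = at least 3 SD above the mean of all compounds, about 16000 in these data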;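 note: 100 nL of 1 mM stock went into each well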
RN4220 kill: kills Staphylococcus aureus RN4220; S. aureus RN4220 growth, OD600, 16 h; inhibition, % (concentration not given with the values); actives 0.33% (n = 330,000);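 active = z-score of -3 or lower and OD600 up to 0.18 on both plates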;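 note: plate controls were untreated cells for no effect and reference antibiotic for full effect; stock transfer was 100 nL into about 80 µL; one replicate is shown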
Mtb hypoxia rep: reduces hypoxia-regulated biosensor signal in M. tuberculosis; M. tuberculosis hypoxia-regulated fluorescent reporter, fluorescence; fluorescence inhibition, % (concentration not given with the values); actives 0.1% (n = 300,000); AID 1159583;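 active = 35 to 45% if threefold the growth effect, above 45% if 1.5-fold the growth effect; inactive = the rest, general growth blockers included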;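 note: wells of about 50 µL received 100 nL stock; 0% = vehicle wells and 100% = reference inhibitor wells; whole bacteria with a GFP reporter of the hypoxia response; strong numbers were not always called active; many hits fall short of the cut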
Mtb hypoxia rep growth: also measured in Mtb hypoxia rep; calls as there; growth inhibition, %; measured here: M. tuberculosis growth (absorbance);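 0% = vehicle and 100% = reference antibiotic; read after six days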
* marks the source's active call; other numbers are inactive results; x = no result given.

Letters – A = PrP UTR inh; B = BJeLR lethal; C = Sa ugtP lethal; D = Bead autofluor; E = RN4220 kill; F = Mtb hypoxia rep; G = Mtb hypoxia rep growth
CCOCCOc1cccc(C(=O)NC(c2ccccc2)c2ccccc2)c1
  A: -35.5	B: -1.5	C: -0.7	D: 3444	E: 4.9	F: -10.9	G: 3.0
CCc1ccc(NC(=S)N(CCCN2CCN(C)CC2)Cc2cccs2)cc1
  A: -21.0	B: 6.1	C: 4.3	D: 11360	E: 3.2	F: 4.4	G: 14.3
CCOC(=O)c1ccc2[nH]c3c(c2c1)CN(C)CC3
  A: -6.9	B: -3.4	C: 3.7	D: 7401	E: -10.8	F: 2.6	G: 4.3
COc1ccc(-c2nnc(SCC(=O)NNC(=O)c3ccc(C)cc3)o2)cc1
  A: -13.8	B: -3.0	C: -3.6	D: 2621	E: -1.7	F: -8.4	G: 1.4
O=C(Nc1cccc(S(=O)(=O)NC2=NCCCCC2)c1)c1cc(-c2ccccc2)nc2ccccc12
  A: -16.3	B: -13.4	C: -2.1	D: 2460	E: 2.4	F: 7.6	G: -2.2
COc1ccccc1N1CCN(C(=O)C(C)N(c2ccc(C)c(C)c2)S(C)(=O)=O)CC1 (stereo not drawn)
  A: -16.6	B: -5.4	C: 3.1	D: 3855	E: 7.3	F: x	G: x
Cc1cc(NC(=O)c2ccc(N3C(=O)C4C5C=CC(C5)C4C3=O)cc2)no1 (stereo not drawn)
  A: -11.6	B: 0.2	C: 4.1	D: 2616	E: 3.8	F: 4.8	G: 5.5
Cc1cccc(CN2CCC(C(=O)Nc3cccc(-c4cscn4)c3)CC2)n1
  A: -7.1	B: -1.9	C: 0.6	D: 6101	E: 2.6	F: 9.0	G: 12.3
O=C(Nc1cc2c(=O)n(-c3ccc(Oc4ccccc4)cc3)ccc2oc1=O)c1ccccc1
  A: -17.9	B: 9.0	C: 9.0	D: 3989	E: 7.0	F: 8.8	G: 1.0
CC(C)(C)NC(=O)CON=C1c2ccccc2-c2ccccc21
  A: -31.2	B: 4.2	C: 10.0	D: 9964	E: 6.1	F: 7.1	G: 5.2
Cc1sc2ncnc(-n3cnc4ccccc43)c2c1C
  A: -10.9	B: -2.5	C: 1.3	D: 10951	E: 2.6	F: 9.1	G: 8.4
CCCOC(=O)c1ccc(Oc2c(-c3ccc(OC)cc3O)n[nH]c2C)cc1
  A: -16.0	B: 9.1	C: -11.1	D: 2450	E: -12.4	F: 2.7	G: 1.4
CC1(C)CC(=O)c2c(n(-c3cccc4ccccc34)ccc2=O)C1
  A: -20.0	B: -0.8	C: -2.8	D: 5780	E: -4.7	F: x	G: x
N#Cc1c(NC(=O)C2CC(Cl)=CCC2C(=O)O)sc2c1CCCCC2 (stereo not drawn)
  A: -10.3	B: -3.1	C: -2.7	D: 5245	E: 3.6	F: -1.5	G: 6.9
CC(NC(=O)C1CCC(CNS(=O)(=O)c2ccc3c(c2)C(C)(C)C(=O)N3C)CC1)c1ccccc1 (stereo not drawn)
  A: -19.0	B: -3.9	C: -16.4	D: 5220	E: 2.5	F: -1.5	G: 10.8
O=S(=O)(c1ccc(NC(=S)NN=C(C2CC2)C2CC2)cc1)N1CCOCC1
  A: -19.7	B: -13.5	C: 0.0	D: 4279	E: 4.6	F: 6.9	G: 5.9
Cc1ccccc1CNC(=O)C(=O)NCC1OCCCN1S(=O)(=O)c1ccc(F)cc1C (stereo not drawn)
  A: -32.3	B: -8.1	C: -1.0	D: 5374	E: 2.3	F: 3.9	G: 6.9
COc1ccc2[nH]c3c(c2c1)CCN1C(=O)N([C@@H](C)C(=O)NC2CCCCC2C)C(=O)[C@]31C (stereo partly drawn)
  A: -42.5	B: -11.0	C: -0.1	D: 5319	E: 2.1	F: x	G: x
O=C1CC(Cc2ccccc2)C(=O)N1c1ccc(Cl)cn1 (stereo not drawn)
  A: -23.5	B: 5.4	C: -0.5	D: 4500	E: -1.3	F: 1.2	G: 4.6
CCCCCC/C=N/Nc1nnc(Cc2ccccc2)c(=O)[nH]1
  A: 8.0	B: 11.3	C: x	D: 2749	E: x	F: x	G: x
COc1cc(OC)cc(C(=O)NNC(=O)c2ccccc2Br)c1
  A: -11.8	B: -1.2	C: 5.4	D: 2048	E: 4.8	F: 2.7	G: 2.0
O=C(NCc1cccnc1)C1CC(c2ccccc2O)=NO1 (stereo not drawn)
  A: -9.2	B: 1.5	C: 3.2	D: x	E: 5.9	F: -0.7	G: -2.5
COc1ccc(CCNc2ccc(N3C(=O)CC(C)C3=O)cc2[N+](=O)[O-])cc1 (stereo not drawn)
  A: -7.2	B: 9.5	C: -1.2	D: 4053	E: 3.3	F: 13.3	G: -4.5
Cc1ccc(S(=O)(=O)NNC(=O)c2ccc(NC(=O)C3CC3)cc2)cc1
  A: -17.2	B: x	C: 15.0	D: 5897	E: -0.3	F: 17.2	G: 10.2
COc1cc2c(cc1OC)CN(C(=O)c1oc3ccccc3c1C)CC2
  A: -7.2	B: 1.1	C: 4.3	D: 4057	E: 7.9	F: 16.7	G: 6.6
CCCCCCOc1ccc(N2C(=O)CC(N(CCc3ccc(S(N)(=O)=O)cc3)C(C)=O)C2=O)cc1 (stereo not drawn)
  A: -10.9	B: -3.2	C: 3.0	D: 4756	E: 6.7	F: -5.3	G: -3.9
CC1CCc2nn(CC(=O)NCCCN3CCOCC3)cc2C1 (stereo not drawn)
  A: -27.8	B: -10.1	C: -3.7	D: 5885	E: -0.1	F: x	G: x
COc1ccccc1C(CNC(=O)c1cccc(S(=O)(=O)NCc2ccccc2)c1)N(C)C (stereo not drawn)
  A: -19.2	B: 0.1	C: 8.3	D: x	E: 3.4	F: -1.0	G: 5.4
CN(C)c1ccc(C=C2SC(=S)NC2=O)cc1
  A: -36.5	B: x	C: -1.4	D: 4564	E: 6.7	F: 16.3	G: 8.4
CCN(c1nc(C)cc(OC)n1)S(=O)(=O)c1ccccc1
  A: -15.1	B: 11.4	C: -3.3	D: 10270	E: 2.0	F: 6.7	G: 2.3
COC(=O)c1ccc(NC(=O)CCc2nnc3ccc(N4CCC5(CC4)OCCO5)nn23)cc1
  A: -25.2	B: 4.7	C: 5.8	D: 3871	E: 0.4	F: 15.3	G: 5.7
Cc1ccc(C(=O)N/N=C\c2ccc(OC(=O)c3cccc(F)c3)cc2)cn1
  A: -29.5	B: 10.8	C: x	D: 4329	E: x	F: x	G: x
COc1ccc(C(C(=O)NC2CCCC2)N(Cc2ccccc2)C(=O)c2snc(C(N)=O)c2N)cc1OC (stereo not drawn)
  A: -12.7	B: 2.8	C: x	D: 3104	E: x	F: x	G: x
CC(Sc1ccc(S(=O)(=O)N2CCOCC2)cn1)C(=O)Nc1ccc(Cl)cc1Cl (stereo not drawn)
  A: -7.1	B: x	C: -8.8	D: 3895	E: 3.5	F: -9.8	G: 1.6
CCOC(=O)N1CCC(N(CCN(C)C)C(=S)Nc2ccc(Oc3ccccc3)cc2)CC1
  A: -7.3	B: 1.1	C: 11.0	D: 3391	E: 2.9	F: 10.6	G: 9.2
CCOC(=O)CC1C(=O)NC2CCCCC2N1C(=O)Nc1ccc(Cl)cc1 (stereo not drawn)
  A: -17.3	B: -3.1	C: -11.2	D: 4541	E: -1.7	F: x	G: x
COc1ccc(Cl)cc1-n1c(=S)sc2c(=O)[nH]c(SCC(=O)C(C)(C)C)nc21
  A: -9.8	B: 5.4	C: -12.0	D: 3598	E: 18.9	F: 3.5	G: 7.6
CC(C)CNC(=O)CSc1nnc(-c2cccc(S(=O)(=O)N3CCCCC3)c2)o1
  A: -22.6	B: 0.4	C: -2.0	D: 4156	E: 0.1	F: x	G: x
CCN(C(=O)COC(=O)c1cc([N+](=O)[O-])ccc1N1CCOCC1)C1CCCCC1
  A: -15.4	B: -11.9	C: -0.8	D: 5620	E: 0.8	F: 8.6	G: 10.3
Cc1cccc(CCNC(=O)COc2cc(=O)n(C)c3ccccc23)c1
  A: -14.5	B: 7.2	C: -9.1	D: 2251	E: 0.3	F: -4.4	G: 3.4
Cn1cc(CNC(=O)C2CCCCC2)cn1
  A: -19.7	B: -8.8	C: -0.7	D: 10213	E: 0.1	F: 3.9	G: 21.3
CCOC(=O)c1nn(-c2ccc3ccccc3c2)cc1O
  A: -54.4	B: -1.2	C: 2.1	D: 4196	E: 4.3	F: 6.2	G: 17.3
CCOc1cc(C(=O)NCC(C)CN(C)C)cc(OCC)c1OCC (stereo not drawn)
  A: -14.8	B: -2.6	C: 14.8	D: 8068	E: 6.7	F: 7.9	G: -7.2
CC(Sc1ccccc1)C(=O)N1CCN(S(=O)(=O)c2ccccc2C(F)(F)F)CC1 (stereo not drawn)
  A: -10.9	B: 3.3	C: 3.9	D: 4937	E: 11.2	F: 8.7	G: 6.4
COC(=O)c1cn(C(=O)c2cc(OC)cc(OC)c2)c2ccccc12
  A: -12.9	B: 2.7	C: 3.8	D: x	E: 0.0	F: 5.6	G: -2.5
O=C(N/N=C\c1cccnc1)c1ccc(Cl)cc1Cl
  A: -16.8	B: 1.1	C: x	D: 3570	E: x	F: x	G: x
CC(=O)Nc1ccc(Nc2ncnc(N)c2[N+](=O)[O-])cc1
  A: -21.6	B: -3.3	C: 5.2	D: 5186	E: 3.3	F: -3.5	G: -3.1
Cc1cccc(CN2CCCC(C(=O)c3ccc(C(F)(F)F)cc3)C2)n1 (stereo not drawn)
  A: -9.4	B: -0.3	C: 10.9	D: 2680	E: 4.2	F: 0.7	G: 12.0
Cc1cccc(CCNC(=O)C2CCN(S(=O)(=O)c3c(C)nn(C)c3C)CC2)c1
  A: 0.5	B: -1.3	C: 0.2	D: 4370	E: -1.0	F: x	G: x
CN(C)CCC1Sc2ccccc2Oc2ccccc21 (stereo not drawn)
  A: -3.2	B: -17.3	C: -0.8	D: 4380	E: -0.9	F: x	G: x

2 entries from above in another layout:
> CCCCCCOc1ccc(N2C(=O)CC(N(CCc3ccc(S(N)(=O)=O)cc3)C(C)=O)C2=O)cc1 (stereo not drawn)
- PrP UTR inh: -10.9
- BJeLR lethal: -3.2
- Sa ugtP lethal: 3.0
- Bead autofluor: 4756
- RN4220 kill: 6.7
- Mtb hypoxia rep: -5.3
- Mtb hypoxia rep growth: -3.9
> CC1CCc2nn(CC(=O)NCCCN3CCOCC3)cc2C1 (stereo not drawn)
- PrP UTR inh: -27.8
- BJeLR lethal: -10.1
- Sa ugtP lethal: -3.7
- Bead autofluor: 5885
- RN4220 kill: -0.1
- Mtb hypoxia rep: x
- Mtb hypoxia rep growth: x

The listing picks up, starting six compounds before the break.
Letters – A = PrP UTR inh; B = BJeLR lethal; C = Sa ugtP lethal; D = Bead autofluor; E = RN4220 kill; F = Mtb hypoxia rep; G = Mtb hypoxia rep growth
COC(=O)c1cn(C(=O)c2cc(OC)cc(OC)c2)c2ccccc12
  A: -12.9	B: 2.7	C: 3.8	D: x	E: 0.0	F: 5.6	G: -2.5
O=C(N/N=C\c1cccnc1)c1ccc(Cl)cc1Cl
  A: -16.8	B: 1.1	C: x	D: 3570	E: x	F: x	G: x
CC(=O)Nc1ccc(Nc2ncnc(N)c2[N+](=O)[O-])cc1
  A: -21.6	B: -3.3	C: 5.2	D: 5186	E: 3.3	F: -3.5	G: -3.1
Cc1cccc(CN2CCCC(C(=O)c3ccc(C(F)(F)F)cc3)C2)n1 (stereo not drawn)
  A: -9.4	B: -0.3	C: 10.9	D: 2680	E: 4.2	F: 0.7	G: 12.0
Cc1cccc(CCNC(=O)C2CCN(S(=O)(=O)c3c(C)nn(C)c3C)CC2)c1
  A: 0.5	B: -1.3	C: 0.2	D: 4370	E: -1.0	F: x	G: x
CN(C)CCC1Sc2ccccc2Oc2ccccc21 (stereo not drawn)
  A: -3.2	B: -17.3	C: -0.8	D: 4380	E: -0.9	F: x	G: x
O=C(O)c1cnc(-c2ccccc2)nc1Sc1ccccc1
  A: -29.0	B: 3.7	C: -13.1	D: 6753	E: 9.5	F: 13.3	G: 7.6
CCc1nnc(NC(=O)CSc2nnc(Cc3ccccc3)n2-c2ccccc2)s1
  A: 0.7	B: 6.3	C: -1.0	D: 2956	E: -0.1	F: 8.2	G: 1.1
Cc1ccccc1CC(=O)NCCN1CCOCC1
  A: -1.2	B: 0.0	C: 1.7	D: 3865	E: 0.2	F: 3.0	G: -0.5
O=[N+]([O-])c1ccc(C=Nn2cnc3ccccc32)s1
  A: x	B: x	C: 11.5	D: x	E: 18.0	F: 23.5	G: 25.2
CCC(=O)N(CC)Cc1cc(=O)[nH]c2ccccc12
  A: -17.0	B: -8.5	C: 8.7	D: 2183	E: 5.5	F: 7.5	G: 4.2
CCN1CCN(C(c2ccc(OC)cc2)c2nnnn2Cc2ccc3c(c2)OCO3)CC1 (stereo not drawn)
  A: -15.5	B: 12.8	C: 7.9	D: 5100	E: 3.3	F: 7.7	G: 2.4
